Compound activity from PubChem BioAssay.
KCNQ2 inh = KCNQ2 potassium channel inhibitors, primary screen, cell-based, CHO-K1, FluxOR thallium flux, B-score (AID 2156); 20 min; hits give low values; only compounds with negative scores are shown here; some inactives read as strong as hits; B-score at 10 µM; 1.1% of 310,000 active;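 active = fluorescence ratio B-score at most minus 3 library SDs, with starting brightness B-score within 2 library SDs, cut at about -5.5 in these data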
Target sequence (O88943 whole entry, looked up): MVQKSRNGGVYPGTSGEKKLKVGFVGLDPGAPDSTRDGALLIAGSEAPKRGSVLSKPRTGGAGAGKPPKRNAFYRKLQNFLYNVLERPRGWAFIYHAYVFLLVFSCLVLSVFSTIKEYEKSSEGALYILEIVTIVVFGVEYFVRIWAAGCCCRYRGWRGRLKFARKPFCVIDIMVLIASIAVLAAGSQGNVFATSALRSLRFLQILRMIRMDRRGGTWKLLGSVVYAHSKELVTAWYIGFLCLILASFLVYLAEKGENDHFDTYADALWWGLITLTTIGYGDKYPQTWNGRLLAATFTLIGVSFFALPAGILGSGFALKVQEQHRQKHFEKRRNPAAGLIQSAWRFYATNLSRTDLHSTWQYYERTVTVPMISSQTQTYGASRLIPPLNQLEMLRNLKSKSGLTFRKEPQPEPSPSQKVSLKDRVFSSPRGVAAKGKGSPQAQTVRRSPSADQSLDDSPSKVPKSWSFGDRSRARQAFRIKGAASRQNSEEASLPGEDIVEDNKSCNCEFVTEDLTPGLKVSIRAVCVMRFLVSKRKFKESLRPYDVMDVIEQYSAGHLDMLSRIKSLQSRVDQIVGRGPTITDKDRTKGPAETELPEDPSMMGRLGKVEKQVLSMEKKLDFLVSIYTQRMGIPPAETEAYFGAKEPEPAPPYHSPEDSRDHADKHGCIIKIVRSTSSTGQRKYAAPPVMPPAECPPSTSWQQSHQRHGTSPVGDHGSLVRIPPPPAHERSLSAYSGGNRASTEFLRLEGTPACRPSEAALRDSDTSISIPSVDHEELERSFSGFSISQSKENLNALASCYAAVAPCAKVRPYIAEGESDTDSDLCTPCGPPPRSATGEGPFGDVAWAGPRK
KCNQ2 inh baseline = second read-out of KCNQ2 inh, no call of its own (marks repeat the call); B-score; measured here: initial fluorescence intensity artifact check;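 brightness before thallium and not channel activity; 0 = typical well and far values either way flag optical interference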
The depositor's hits bear a star; i = inactive.

SMILES	KCNQ2 inh	KCNQ2 inh baseline
Cc1ccc(CNS(=O)(=O)c2cc3c4c(c2)C(C)C(=O)N4CCC3)cc1 (stereo not given)	i	-0.57
Cc1ccc2oc(=O)n(Cc3ccc(F)cc3)c2c1	i	-0.02
Cn1nc(C(=O)NCCc2ccc(S(N)(=O)=O)cc2)c2ccccc2c1=O	i	-1.3
COc1ccc2nc(N3C(=O)C(O)=C(C(=O)c4ccco4)C3c3ccccc3OC)sc2c1 (stereo not given)	i	-0.59
COc1ccccc1C(=O)NCC(c1ccco1)N1CCc2ccccc21 (stereo not given)	-6.3*	1.8*
c1ccc(-n2nnnc2NC2CCCCCC2)cc1	i	-1.2
O=C1/C(=C/c2ccncc2)SC(=S)N1Cc1ccccc1	i	0.06
CS(=O)(=O)c1nc2ccccc2n1Cc1ccccc1	i	0.03
COc1ccc(C2Nc3ccccc3C(=O)N2O)cc1OC (stereo not given)	i	-1.4
CC(C)OC(=O)[C@H]1[C@H](c2ccc(Cl)cc2)[C@@](C#N)(C(N)=O)[C@@H]2C=CC(C(N)=O)=CN21	i	0.87
COc1ccccc1/C=N/NC(=O)C(=O)Nc1ccccc1OC(F)(F)C(F)F	i	0.82
O=C(N/N=C/c1ccc[nH]1)c1cc(-c2cccs2)nc2ccccc12	i	-1.6
O=c1oc2ccccc2c(N2CCCCC2)c1[N+](=O)[O-]	i	-0.12
COc1cccc(N2CCN(C(=O)CNC(=O)c3sc4ccccc4c3Cl)CC2)c1	i	1.2
Cc1cc(Br)cc(C)c1NC(=O)c1ccccc1[N+](=O)[O-]	i	1.1
CCOC(=O)C1=C(c2ccccc2)N=C2SCC(=O)N2C1c1ccc(OCC)c(OCC)c1 (stereo not given)	i	-0.86
C/C(=N/Nc1ccccc1C(=O)O)c1cccs1	i	0.86
Cc1ccc(C(=O)OCC(=O)c2cc(C)n(CC3CCCO3)c2C)cc1 (stereo not given)	i	-0.91
Cc1cc(NC(=O)C(C)Oc2ccc(Cl)cc2Cl)n(-c2ccccc2)n1 (stereo not given)	i	0.42
Cc1ccccc1CN1CCN(CC(=O)NCc2ccccc2)C1=O	i	-2
O=C(NCC1CCCO1)C(=O)NCC(c1ccco1)N1CCN(c2ccccc2)CC1 (stereo not given)	i	1.1
Cc1cc(C)c(C(=O)C(C)OC(=O)C2=COCCO2)cc1C (stereo not given)	i	-2.5
Cc1[nH]n(-c2ccccc2)c(=O)c1C(c1ccc(O)c([N+](=O)[O-])c1)c1c(C)[nH]n(-c2ccccc2)c1=O	i	-1.9
CC(C)CN(CCNC(=O)CC1Oc2ccccc2NC1=O)CC(C)C (stereo not given)	i	1.9
Cc1ccc(C2=C(O)c3ccccc3C(=O)C2=O)cc1	i	-0.63

Next section (six carried over from the part before).
SMILES	KCNQ2 inh	KCNQ2 inh baseline
Cc1ccccc1CN1CCN(CC(=O)NCc2ccccc2)C1=O	i	-2
O=C(NCC1CCCO1)C(=O)NCC(c1ccco1)N1CCN(c2ccccc2)CC1 (stereo not given)	i	1.1
Cc1cc(C)c(C(=O)C(C)OC(=O)C2=COCCO2)cc1C (stereo not given)	i	-2.5
Cc1[nH]n(-c2ccccc2)c(=O)c1C(c1ccc(O)c([N+](=O)[O-])c1)c1c(C)[nH]n(-c2ccccc2)c1=O	i	-1.9
CC(C)CN(CCNC(=O)CC1Oc2ccccc2NC1=O)CC(C)C (stereo not given)	i	1.9
Cc1ccc(C2=C(O)c3ccccc3C(=O)C2=O)cc1	i	-0.63
Cc1cc(SCc2c(F)cccc2Cl)nc(=O)[nH]1	i	-0.4
CC(C)C(=O)NNC(=O)CSc1nnc(-c2ccccc2)c(-c2ccccc2)n1	i	-0.19
NC(=O)c1ccc(SCC(=O)OCC(=O)NCc2ccco2)c([N+](=O)[O-])c1	i	-0.02
O=C(Cn1c(O)c(N=NC(=O)c2ccncc2)c2ccccc21)Nc1ccccc1	i	0.03
CN(C)c1nc(N)nc(N(c2ccccc2)c2ccccc2)n1	i	-1.5
Cn1cc(S(=O)(=O)Nc2ccc(Br)cc2F)c(=O)n(C)c1=O	i	0.27
CCOc1cc(NC(=S)Nc2ccccc2)c(OCC)cc1NC(=O)c1ccccc1	i	-0.68
O=C(CN1C(=O)CSc2ccc(S(=O)(=O)N3CCCCC3)cc21)NCc1ccccc1Cl	i	0.48
Cc1ccc(NC(=O)Cc2nnc(SCC(=O)Nc3nncs3)n2C)c(C)c1	i	-0.81
N=c1ccn(CC(=O)c2ccc(-c3ccccc3)cc2)cc1	i	-0.72
CC1(C(=O)N/N=C/c2ccc3c(c2)OCO3)CC1(Br)Br (stereo not given)	i	-0.07
COC(=O)c1c(C(=O)OC)c(-c2ccc(Cl)c(Cl)c2)n2c1CCC2	i	0.09
Cc1cc(C)c2cc(C)c(SCC(=O)NCc3ccco3)nc2c1	i	0.03
COc1ccc(S(=O)(=O)N2CCC(C(=O)OCC(=O)c3ccccc3)CC2)cc1[N+](=O)[O-]	i	-0.11
COc1ccccc1OCCNC(=O)Nc1ccc(Br)cc1	i	0.6
C=CCn1nnnc1SCC(=O)Nc1cccc(OC)c1	i	0.22
N#C/C(=N\Nc1ccc(S(=O)(=O)N2CCc3ccccc32)cc1)C(N)=S	i	-0.89
CCOC(=O)c1ccc(NC(=O)CSc2nnc(CNc3ccc(OC)cc3)n2C)cc1	i	-0.02
CCNC(=O)C(=O)NCC(c1cccs1)S(=O)(=O)c1ccc(C)cc1 (stereo not given)	i	1.1
COc1ccc(-c2cc(C(=O)Nc3ccc(OC)c(OC)c3)no2)cc1	i	-1.1
Cc1onc(-c2c(Cl)cccc2Cl)c1C(=O)N1CCCc2ccccc21	i	0.61
CCCCCCC(=O)Nc1c(O)c2ccccc2[nH]c1=O	i	0.61
Cc1ccc(C2(C(F)(F)F)NC(=O)N3CCN=C3S2)cc1 (stereo not given)	i	0.44
COc1ccc(NC(=O)NNS(=O)(=O)c2ccc(Br)cc2)cc1	i	-0.4
COCCCNC(=O)c1ccc(CS(=O)(=O)c2cccc(C(F)(F)F)c2)o1	i	-2.1

Whole records, looked up by structure. Order of screens: KCNQ2 inh | KCNQ2 inh baseline
N=c1ccn(CC(=O)c2ccc(-c3ccccc3)cc2)cc1 is listed as i | -0.72
N#C/C(=N\Nc1ccc(S(=O)(=O)N2CCc3ccccc32)cc1)C(N)=S is listed as i | -0.89

(continued)
SMILES	KCNQ2 inh	KCNQ2 inh baseline
CN(CC(=O)N1CCc2[nH]c3ccc(F)cc3c2C1)CC1OCCO1	i	1.6
CC(C)OCC(O)CS(=O)Cc1ccccc1 (stereo not given)	i	1
C=CCn1c(-c2ccc(Cl)cc2)cnc1SC(C)C(=O)NC(N)=O (stereo not given)	i	-0.54
COc1ccc(CC(=O)N2CCN(S(=O)(=O)c3cccs3)CC2)cc1OC	i	0.72
O=C(NCCCN1CCCCC1)C1(S(=O)(=O)c2ccc(Cl)cc2)CC1	i	1.5
CCCCCn1c(=N)c(S(=O)(=O)c2ccc(Br)cc2)cc2c(=O)n3cccc(C)c3nc21	i	1.5
Cn1c(-c2ccc3c(c2)OCO3)cc(=O)c2ccccc21	i	0.24
Cc1ccc(NC(=O)CCC(=O)N/N=C/c2coc3ccccc3c2=O)cc1	i	-0.02
Fc1ccccc1N1CCN(CC2CC3C=CC2C3)CC1 (stereo not given)	i	-0.68
CC(C)c1ccc(NC2CCCN(C(=O)c3ccc(Cn4cnnn4)cc3)C2)cc1 (stereo not given)	i	-0.07
O=C(CNc1ccccc1F)Nc1cccc2ccccc12	i	0.57
O=C(N/N=C/c1ccc(OCC(=O)N2CCCC2)cc1)C(=O)NC1CC1	i	-0.11
N#C/C(=C\c1ccncc1)c1nc2ccccc2c(=O)[nH]1	i	0.06
CCOC(=O)C1CCCN(Cc2ccc(OC)c(OCc3ccccc3)c2)C1 (stereo not given)	i	0.79
Cc1ccc(NC(=O)Cc2noc3ccccc23)c(C)c1	i	2.2
COC(=O)C1(Cc2ccc(O)cc2)OC(=O)C(O)=C1c1ccc(O)cc1 (stereo not given)	i	-1
O=C1CC(c2ccco2)Cc2nc(Nc3ccc(F)cc3)ncc21 (stereo not given)	i	1
COc1ccc(-c2cc(=O)oc3c(C)c(OCC(=O)NCCCn4ccnc4)ccc23)cc1	i	4.5
CC(/C=N/n1c(-c2ccccn2)n[nH]c1=S)=C\c1ccccc1	i	-1.1
COc1ccc(OC)c(N(CC(=O)N2CCN(c3cc(Cl)ccc3C)CC2)S(C)(=O)=O)c1	i	1.4
Cc1cccc(OCC(O)CN2CC3(C)CC2CC(C)(C)C3)c1 (stereo not given)	i	-1.4
COc1cc2cc(CN(C(=O)NC3CCCCC3)C3CCCC3)c(=O)[nH]c2cc1OC	i	0.21
C=C(C)Cn1c(N2CCCC2)nc2c1c(=O)n(C)c(=O)n2C	i	0.58
O=C(c1ccc(-c2nnc(-c3ccccc3)o2)cc1)N1CCCCCC1	i	-2.1
COCCCn1c(SCC(=O)NC2CCCCC2)nnc1-c1ccncc1	i	0.82

Six structures out of the list, sorted by molecular weight, rising:
SMILES	KCNQ2 inh	KCNQ2 inh baseline
Cn1c(-c2ccc3c(c2)OCO3)cc(=O)c2ccccc21	i	0.24
C=C(C)Cn1c(N2CCCC2)nc2c1c(=O)n(C)c(=O)n2C	i	0.58
CC(/C=N/n1c(-c2ccccn2)n[nH]c1=S)=C\c1ccccc1	i	-1.1
C=CCn1c(-c2ccc(Cl)cc2)cnc1SC(C)C(=O)NC(N)=O (stereo not given)	i	-0.54
COCCCn1c(SCC(=O)NC2CCCCC2)nnc1-c1ccncc1	i	0.82
COc1ccc(OC)c(N(CC(=O)N2CCN(c3cc(Cl)ccc3C)CC2)S(C)(=O)=O)c1	i	1.4

(list continues)
SMILES	KCNQ2 inh	KCNQ2 inh baseline
COc1ccc(/C(C)=N\NC(=O)CSc2nnc(C)s2)cc1	i	-0.26
O=C(NCC1CCCO1)C(c1ccc(F)cc1)N(CCCN1CCOCC1)C(=O)c1ccc(-c2ccccc2)[nH]1 (stereo not given)	i	0.38
CC(C)c1ccc(NC(=O)NCc2ccccn2)cc1	i	-0.01
Cc1cc(C(=O)C(=O)N(C)C)c(C)n1-c1ccc(Cl)cc1	i	1.2
CCOC(=O)C(C(C)=O)c1nc(C)nc2c1nnn2Cc1ccccc1Cl (stereo not given)	i	-0.34
CC(C)CNC(=O)C(=O)NC1CCCC1	i	2.8
Cc1cc(C)c(C(N)=O)c(Nc2cccc(Cl)c2C)n1	i	-0.01
O=C(Cc1ccc(-n2c(=O)c3sccc3n(Cc3ccc(F)cc3)c2=O)cc1)NCc1ccco1	i	-2.9
O=C(Nc1ccccc1)N1N=C(c2cccs2)CC1c1cccs1 (stereo not given)	i	-0.06
C[C@@H](C(=O)Nc1ccc2ccccc2c1)[C@@H]1C[C@@]1(C)[C@@H](NC(=O)c1cccnc1)c1ccccc1	i	-2.2
Cc1cc(C(=O)NCc2cccs2)c(C)o1	i	0.56
O=C1CC(c2ccccc2)CC(O)=C1C=Nc1ccccc1Cl (stereo not given)	i	0.11
CCCNC(=O)c1cc2c(C(F)(F)F)nn(C)c2s1	i	0.33
Cc1ccc(-c2cc(C(=O)N3CCOCC3)c3cc(C)ccc3n2)cc1	i	-0.02
CCOC(=S)SCc1cn2ccc(C)cc2n1	i	0.28
CCOc1ccc(-c2cc(C(=O)Nc3ccc4c(c3)OCCO4)c3ccccc3n2)cc1	-9.1*	0.94*
CCc1cccc(NC2c3ccccc3C(=O)N2c2cccnc2)c1 (stereo not given)	i	0.61
CCOC(=O)C1C(c2ccc(C(=O)O)cc2)NC(=O)NC1(O)C(F)(F)F (stereo not given)	i	-0.43
CN(Cc1c(F)cccc1Cl)C(=O)c1cc2ccccc2o1	i	0.18
CCOC(=O)N1CCN(S(=O)(=O)c2ccc(C(=O)Nc3sc4c(c3C(=O)OC)CCN(C)C4)cc2)CC1	i	-0.3
CC1CCN(C(c2ccc(N(C)C)cc2)c2nnnn2Cc2ccccc2)CC1 (stereo not given)	i	0.08
COCCCNc1nc2nonc2nc1N1CCN(Cc2cccc(C)c2)CC1	i	-0.5
COc1ccc(NC(=O)[C@@H]2CCCN2C(=O)[C@@H]2Cc3ccccc3CN2C(=O)OC(C)(C)C)cc1	i	-0.33
COc1ccc(N(Cc2ccccc2)S(=O)(=O)c2cccc(C(=O)O)c2)cc1	i	0.2
CCCOc1ccccc1OCC(=O)Nc1ccc(S(=O)(=O)N2CCCCC2)cc1	i	1

Other records:
SMILES	KCNQ2 inh	KCNQ2 inh baseline
CCOC(=O)c1ccc2c(c1)nc(SCC(=O)N1CCOCC1)n2CC	i	0.18
N#Cc1cc(-c2ccccc2)c[nH]c1=O	i	1.6
CCOc1ccccc1NC(=O)c1ccc(-n2cncn2)nc1	i	-0.01
CN(C)c1ccc(-c2sc(Nc3ccccc3)n[n+]2-c2ccc(F)cc2)cc1	i	14
COc1cccc(-c2ccc(NC(=O)C3CCCN(CCCn4cccn4)C3)cc2)c1 (stereo not given)	i	-2.3
COc1ccc(/C=N/NC(=O)c2cccc(C(=O)N/N=C/c3ccc(OC)cc3)n2)cc1	i	-0.28
CCCn1cc(SCC(=O)Nc2cc(C)on2)c2ccccc21	i	1.6
CC(C)(C)Cc1nnc(NC(=O)CSc2ccccc2)s1	i	-0.67
CC(C)N(C(=O)CSc1nc2ccccc2n1Cc1ccc(F)cc1)C(C)C	-7.9*	-0.87*
O=C(Nc1ccc(S(=O)(=O)NCc2ccccc2)cc1)c1ccc(Br)o1	i	-0.06
CCCCCCCOC(=O)C[N+](C)(C)CCOC1CC2CCC1(C)C2(C)C (stereo not given)	i	-0.93
CCN(CC)S(=O)(=O)c1cccc(C(=O)Nc2cc(C)cc(C)c2)c1	i	-0.74
Cc1ccccc1C(=O)c1cccn1CC(=O)NCCN1CCN(c2cccc(C)c2C)CC1	i	-0.58
Cc1c(Cl)c([N+](=O)[O-])nn1CC(=O)N1CCN(C23CC4CC(CC(C4)C2)C3)CC1	i	1.7
Cc1ccsc1C(=O)N1CCC(CO)(Cc2ccccc2)CC1	i	-0.06

An excerpt; count on the stated rates, not on these rows.
